Mtb hypoxia rep – inhibitors of hypoxia-regulated fluorescent reporter in Mycobacterium tuberculosis. M. tuberculosis hypoxia-regulated fluorescent reporter, fluorescence. fluorescence inhibition, % (test concentration not listed). hit rate 0.1% among 300,000. AID 1159583;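 active = 35 to 45% if threefold the growth effect, above 45% if 1.5-fold the growth effect; inactive = the rest, general growth blockers included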;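 also: wells of about 50 µL received 100 nL stock; 0% = vehicle wells and 100% = reference inhibitor wells; whole bacteria with a GFP reporter of the hypoxia response; strong numbers were not always called active; many hits fall short of the cut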
PrP 5UTR inh – inhibition of PrP 5' UTR reporter expression; hit rate 0.35% among 340,000; cell-based PrP 5' UTR mRNA reporter, plate reader; AID 488862; inhibition, % (test concentration not listed);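 active = every replicate at 50% or more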;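 also: 0 = median of the neutral control wells; tested in H4 reporter cells; numbers are from one replicate; inactives centre near -14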
Sa RN4220 lethal – S. aureus RN4220 growth inhibition. OD600, 16 h. inhibition, % (test concentration not listed). hit rate 0.33% among 330,000. AID 1259311;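 active = z-score of -3 or lower and OD600 up to 0.18 on both plates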;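 also: plate controls were untreated cells for no effect and reference antibiotic for full effect; stock transfer was 100 nL into about 80 µL; one replicate is shown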
BJeLR viability – BJeLR cell viability loss; hit rate 0.17% among 300,000; BJeLR (HRASV12) viability, CellTiter-Glo ATP luminescence, 48 h; reference of the scale not given here; inhibition, % (test concentration not listed);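 active = replicate mean above 50%; inconclusive = above 50% but judged a plate artefact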;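 also: 50 nL library stock added to about 25 µL; numbers are from one replicate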
Sa ugtP lethal – growth inhibition of S. aureus ugtP deletion strain; S. aureus RN4220 ugtP deletion, OD600 growth, 16 h; some inactives read as strong as hits; growth inhibition, % (no concentration beside the values); hit rate 0.54% among 330,000; AID 1259309;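 active = z-score under -3 and OD600 up to 0.15 on both plates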;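 also: plate controls were untreated wells for no effect and antibiotic for full effect; wells of about 80 µL received 100 nL stock; the first replicate is given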
Bead autofluor – compound fluorescence in toxin protease inhibitor counterscreen; AID 624483; fluorescence intensity (test concentration not listed); hit rate 3.1% among 360,000; compound autofluorescence counterscreen, microsphere flow cytometry; hits give high values;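 active = at least 3 SD above the mean of all compounds, about 16000 in these data; inconclusive = too few beads counted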;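 also: 100 nL of 1 mM stock went into each well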
Mtb hypoxia rep growth – second read-out of Mtb hypoxia rep, no call of its own (marks repeat the call); growth inhibition, %; measured here: M. tuberculosis growth (absorbance);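 0% = vehicle and 100% = reference antibiotic; read after six days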
Numbers without * were called inactive; ? = inconclusive; · = no result given; & = joins results of further samples.

SMILES	Mtb hypoxia rep	Mtb hypoxia rep growth	PrP 5UTR inh	Sa RN4220 lethal	BJeLR viability	Sa ugtP lethal	Bead autofluor
O=c1[nH][nH]c(C(F)(F)F)c1C=NCc1cccc(Cl)c1	·	·	-13	0.8	-8	3	4222
Cn1cccc1-c1cc(C(=O)N/N=C/c2cccc(O)c2)[nH]n1	·	·	-20	·	9	·	4823
COc1ccccc1CCC(=O)Nc1cc(S(=O)(=O)N2CCCCC2)ccc1N1CCN(C)CC1	3	5	-3	5.1	5	5	?
COc1cc(NC(=O)COC(=O)CON=C(C)c2ccc3c(c2)OCO3)cc(OC)c1	9	7	·	3.8	·	9	·
COC(=O)CN1C(=O)COc2ccc(S(=O)(=O)N3CCOCC3)cc21	12	4	4	1.8	6	2	5566
O=C(CSc1nc(-c2ccccc2)c(-c2ccccc2)o1)Nc1nnc(-c2ccccc2)s1	2	9	-7	3.4	-1	-11	22803*
Cn1c(N2CCN(S(=O)(=O)c3ccc(F)cc3)CC2)nc2ccccc21	12	1	-27	7.1	-12	2	4562
O=C(Nc1ccc(N2CCN(C(=O)c3ccco3)CC2)cc1)c1ccc(F)cc1	5	9	-17	-1.0	9	-6	8386
CCC(C)c1ccc(NS(=O)(=O)c2c(C)[nH]c(=O)[nH]c2=O)cc1 (stereo not drawn)	2	-4	-18	0.9	-4	3	3794
O=C(c1ccc2c(=O)n3c(nc2c1)CCCCC3)N1CCN(c2ccccc2)CC1	5	7	5	2.7	8	14	1683
Cc1cc(NC(=O)CSc2nc(N)c(NC(=O)c3ccccc3)c(=O)[nH]2)no1	12	4	-8	0.4	-8	8	2501
Cc1cc(-c2ccc(Cl)cc2)c2cnn(C(C)C)c2n1	3	-2	-11	4.7	-7	37	4120
COC(=O)C1=C(c2cccc(OCc3ccccc3)c2)CC2CCC1N2C(=O)NCCN1CCOCC1 (stereo not drawn)	3	6	·	3.4	·	-1	·
CCOC(=O)c1cc(C)sc1N=CC1C(=O)NC(=S)NC1=O	-2	4	·	5.0	·	8	·
CCOC(=O)c1cc(OC(=O)c2ccccc2)n(-c2ccccc2)n1	10	9	-10	3.3	-3	5	23849*
CSc1cccc(NC(=O)N2CCc3ccc(NC(=O)c4ccccn4)cc3C2)c1	1	2	-34	-1.8	-7	-19	4507
CCC(C)(C)NC(=O)Cc1ccc(F)cc1	-9	-2	-22	-3.7	9	3	3667
O=C(/C=C/Nc1ccc(F)c(Cl)c1)c1ccccc1	3	1	-54	4.3	-5	12	3720
CCOC(=O)C(C)Sc1ncc(OC)c(Sc2ccc(Cl)cc2)n1 (stereo not drawn)	3	8	-8	5.1	-4	66	24632*
c1ccc(CSc2nc3ccccc3[nH]2)cc1	15	4	-60	5.3	12	4	3190
CSc1ccc(CN2CCC(Oc3ccc(C(=O)N4CCCC4)cc3)CC2)cc1	15	14	-20	1.6	11	9	6186
COc1ccccc1CNc1ccc(Br)cn1	-3	0	-47	-1.0	-2	4	3049
COc1ccc(C(=O)NC(=S)NCC2CCCO2)cc1 (stereo not drawn)	8	3	-27	8.7	-7	-16	2174
COc1ccccc1NC=C1C(=O)OC(C)(C)OC1=O	0	2	-16	3.4	5	8	14447

Record cards, from the list above. Order of values: Mtb hypoxia rep	Mtb hypoxia rep growth	PrP 5UTR inh	Sa RN4220 lethal	BJeLR viability	Sa ugtP lethal	Bead autofluor
Shown for CCOC(=O)c1cc(C)sc1N=CC1C(=O)NC(=S)NC1=O = -2	4	·	5.0	·	8	·
Shown for CCOC(=O)c1cc(OC(=O)c2ccccc2)n(-c2ccccc2)n1 = 10	9	-10	3.3	-3	5	23849*
Shown for CSc1cccc(NC(=O)N2CCc3ccc(NC(=O)c4ccccn4)cc3C2)c1 = 1	2	-34	-1.8	-7	-19	4507
Shown for CCOC(=O)C(C)Sc1ncc(OC)c(Sc2ccc(Cl)cc2)n1 (stereo not drawn) = 3	8	-8	5.1	-4	66	24632*
Shown for CCC(C)(C)NC(=O)Cc1ccc(F)cc1 = -9	-2	-22	-3.7	9	3	3667

Carrying on:
SMILES	Mtb hypoxia rep	Mtb hypoxia rep growth	PrP 5UTR inh	Sa RN4220 lethal	BJeLR viability	Sa ugtP lethal	Bead autofluor
O=C(Nc1ccc(F)cc1)C(Cc1ccccc1)n1cccc1 (stereo not drawn)	-11	-11	11	2.1	3	-2	·
COc1ccc(C(=O)N2CCCC(c3nc(-c4cccs4)no3)C2)cc1 (stereo not drawn)	-3	0	-2	-3.2	·	0	19734*
CC(C)[C@H](NC(=O)c1ccco1)C(=O)OCC(=O)N(C)c1ccccc1	0	7	-8	2.0	2	0	3343
C/C(=N\NC(=O)c1cccc(C)c1)c1ccc(N2CCOCC2)cc1	·	·	-5	·	16	·	3601
O=S(=O)(c1ccc(F)cc1)N1CCC2(CC1)OCCO2	6	10	-14	2.9	-3	1	4767
CN(C)CCN=Cc1c(O)n(CCC2=CCCCC2)c(=O)[nH]c1=O	8	2	4	3.1	5	-1	7679
CC(Oc1ccc(Cl)cc1)C(=O)NNC(=S)NC(=O)c1ccco1 (stereo not drawn)	-10	-2	7	69	11	54	10751
CC(C)(C)c1nc(NCC2CCCO2)c2nnn(Cc3ccccc3)c2n1 (stereo not drawn)	11	13	6	5.0	-5	-1	10723
CC(C)N(CCCNC(=O)c1ccc(CS(=O)(=O)c2c(Cl)cccc2Cl)o1)Cc1ccccc1	3	-8	-1	0.4	2	16	4518
O=C(CNC(=O)c1ccncc1)NN=Cc1ccc(Br)cc1	-10	2	·	-3.0	·	-4	·
CC(=O)c1cccc(Nc2nc(-c3cccc([N+](=O)[O-])c3)cs2)c1	·	·	-82	·	-5	·	4300
CCCN(CCC)S(=O)(=O)c1ccc(NS(=O)(=O)c2ccc(F)cc2)cc1	3	10	-12	9.6	10	-12	17098*
CC(C)Oc1ccc(CCc2nnc(SCC(=O)O)n2-c2ccccc2)cc1	8	-1	-13	1.4	8	-2	4169
O=C(Nc1nncs1)c1c(F)c(F)c(F)c(F)c1F	15	9	-8	11	-10	-1	3845
O=C(C1=C(O)C(=O)N(CCN2CCOCC2)C1c1ccccn1)c1cccs1 (stereo not drawn)	16	8	-16	5.7	7	7	4050
O=C(C1CCN(S(=O)(=O)c2cccs2)CC1)N1CCN(c2ccccc2)CC1	7	0	-5	3.9	0	2	16746*
O=C(Nc1cccc(-c2csc(Nc3cccc(C(F)(F)F)c3)n2)c1)c1ccccc1	·	·	-9	·	-6	·	3909
COC(=O)c1c(NC(=O)c2cccs2)sc2c1CCCC2	·	·	-24	-8.4	5	10	3516
Cc1cccc(Cc2nnc(CCC(=O)N3CCCC(CN4CCOCC4)C3)o2)c1 (stereo not drawn)	7	5	-27	5.2	-6	5	4127
Cc1cc(C)n(Cc2ccc(C(=O)Nc3cccc(Br)c3)o2)n1	2	9	-19	-2.0	-10	-19	7224
CC(C)c1cc(NC(=O)CSc2nnc(-c3ccccc3F)n2C)on1	-4	6	0	-2.6	3	-5	5740
Cc1nc2ccc(S(=O)(=O)NC(C(=O)NC3CCCC3)C(C)C)cc2s1 (stereo not drawn)	·	·	-11	0.0	-6	2	5473
Cc1cc[n+](Cc2ccccc2)cc1	2	4	-26	9.0	-6	-3	3655
COCCNC(=S)N(CCc1c(C)[nH]c2ccc(C)cc12)Cc1cc(OC)c(OC)c(OC)c1	6	1	2	3.1	-5	10	4276
Cc1ccc(/C=C2/SC(=S)N(CCC(=O)N3CCN(c4ccccc4)CC3)C2=O)cc1	·	·	·	-0.1	-4	15	·
C[C@H](NS(=O)(=O)c1ccc(Cl)c(Cl)c1)C(=O)OCc1cc(=O)n2cc(Br)ccc2n1	-2	10	-19	4.8	-2	4	2572
O=C(NCCCO)c1ccc2[nH]c3c(c2c1)CCCC3	·	·	-12	0.0	-7	-13	2083
Cn1ccnc1-c1nnn(-c2ccc(Cl)c(Cl)c2)n1	·	·	-5	·	-3	·	2969
O=C(CCn1c(=O)c2cccn2c2cccnc21)N1CCN(c2cccc(Cl)c2)CC1	-14	-3	-19	2.5	0	-13	5087
CN(Cc1nc2ccccc2c(=O)[nH]1)c1ccccc1	-5	-4	-32	4.7	4	2	2197
Cc1ccc(-c2cc(C(=O)Nc3ccc(S(=O)(=O)Nc4onc(C)c4C)cc3)c3ccccc3n2)cc1	11	18	9	4.1	0	16	4265
Cc1nc(NC(=O)C2CCCCC2C(=O)O)sc1C (stereo not drawn)	-4	-2	-26	3.8	1	10	5044
Cc1ccc(S(=O)(=O)N2CCN(C(=O)COC(=O)c3cncc(Br)c3)CC2)c(C)c1	3	6	-3	2.4	·	2	3875
Cc1cc(=O)oc2c1c(C)nn2-c1cccc(Cl)c1	0	18	-10	4.6	6	7	3270
O=C(NN=Cc1ccccn1)c1cc(-c2ccccc2)nc2ccccc12	-7	-5	·	1.4	·	-12	·
Cc1ccc(N2CC(C(=O)Nc3ccncc3)CC2=O)cc1 (stereo not drawn)	4	-2	-14	9.2	-3	-1	9443
CC(CC(=O)Nc1ccc2c(c1)OCCO2)=NNC(=O)COc1cccc(C)c1	6	1	·	3.9	·	12	·
CC(=O)Nc1c([N+](=O)[O-])cc2[nH]c(=O)[nH]c2c1[N+](=O)[O-]	·	·	-12	·	-4	·	3757
CCN(CC)S(=O)(=O)c1cccc(-c2nnc(SCC(=O)c3cc(C)n(C4CC4)c3C)o2)c1	9	6	8	16	-4	-10	4190
CCOC(=O)N1CCC(NC(=O)C(NS(=O)(=O)c2cccc3nsnc23)c2ccccc2)CC1 (stereo not drawn)	0	3	-27	2.3	-3	17	4087
COc1ccc(NC(=O)C(C#N)=Cc2cc(OC)c(OCc3ccc(C(=O)O)cc3)cc2Br)cc1	1	2	·	12	·	-8	·
Cc1ccc(-c2nn(C)c(=O)c3ccccc23)cc1CNS(C)(=O)=O	1	6	-8	19	-9	13	2410
O=C(Nc1cc([N+](=O)[O-])ccc1O)c1ccc2c(c1)C(=O)N(Cc1ccco1)C2=O	4	14	-12	2.5	-3	-7	6536
CC(C)Oc1ccc(C(=O)CCN2CCCCC2)cc1	10	5	-13	3.0	3	5	6870
Cc1ccccc1P(=O)(CO)c1ccccc1C	7	3	-2	-13	-1	-3	2459
O=C(Nc1ccc(S(=O)(=O)Nc2nccs2)cc1)c1ccc(F)c(S(=O)(=O)N2CCOCC2)c1	·	·	-3	2.2	2	0	5317
COC(=O)c1ccsc1NC(=O)CN1C(=O)CCC1=O	1	2	6	0.9	-6	-1	4747
Cn1c(=O)[nH]c(=O)c2c1nc(NN=Cc1ccncc1)n2Cc1ccc(Cl)cc1	17	3	·	3.8	·	6	·
CCc1nc(N[C@@H](Cc2c[nH]c3ccccc23)C(=O)O)c2oc3ccccc3c2n1	·	·	-26	·	-4	·	3098
O=S(=O)(Nc1nc2ccccc2nc1N1CCN(CCO)CC1)c1cc(F)ccc1F	6	-5	2	1.5	·	1	?
O=C(O)CSCC(=O)Nc1ccc(Cl)cc1C(F)(F)F	-2	11	-24	1.6	-5	1	2609
O=C(Nc1ccccc1)C1=CC(c2ccccc2)CC(OCCCCO)O1 (stereo not drawn)	1	-1	·	-0.6	·	-1	·
COc1ccc2c(C(=O)CN3CCSCC3)c[nH]c2c1	4	14	-19	1.4	-2	-11	6542
CNc1snc(C)c1C(=O)OC(C)C(=O)Nc1ccc(F)cc1 (stereo not drawn)	8	8	·	-0.3	·	-2	·
O=CNC(n1cnc2c(N3CCOCC3)ncnc21)C(Cl)(Cl)Cl (stereo not drawn)	-8	-1	·	1.9	-10	8	4114
Cc1nn(CC(=O)N(C)C2(C#N)CCCCC2)c(C)c1[N+](=O)[O-]	8	0	·	1.4	·	1	·
Cc1ccc2c(c1)C1(C(=O)N2)N2CCCC2C(C(=O)c2ccc3ccccc3c2)C12C(=O)Nc1ccccc12 (stereo not drawn)	-3	-2	-5&-56	1.5	·	-17	4723
CCOC(=O)CSc1nc(N)c(C#N)c(-c2ccc(OC)cc2)c1C#N	·	·	-10	0.4	-1	-3	4173
Cc1cc(OCC(=O)c2ccc(C(F)(F)F)cc2)n2cnnc2n1	16	-4	1	2.8	2	15	4920
CN=C(SCC(=O)c1cccc(Cl)c1)c1c(O)n(C)c(=O)n(C)c1=O	-1	-3	-27	2.0	12	3	5887
